# From PubChem BioAssay
# GIV-Gai inh = blocks GIV peptide binding to rat Galpha-i3; P08753; 210,000 tested, 0.42% active; Galpha-i3/FITC-GIV peptide fluorescence polarization, 90 min; hits give low values; scaled: aluminum fluoride 0%, vehicle 100%; percent of control (FP), % (concentration not given with the values);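 active = replicate mean at 85% of control or lower, very high polarization wells dropped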;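 also: wells of about 15 µL received 100 nL stock; the first replicate is given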
# Target sequence (P08753 whole entry, looked up): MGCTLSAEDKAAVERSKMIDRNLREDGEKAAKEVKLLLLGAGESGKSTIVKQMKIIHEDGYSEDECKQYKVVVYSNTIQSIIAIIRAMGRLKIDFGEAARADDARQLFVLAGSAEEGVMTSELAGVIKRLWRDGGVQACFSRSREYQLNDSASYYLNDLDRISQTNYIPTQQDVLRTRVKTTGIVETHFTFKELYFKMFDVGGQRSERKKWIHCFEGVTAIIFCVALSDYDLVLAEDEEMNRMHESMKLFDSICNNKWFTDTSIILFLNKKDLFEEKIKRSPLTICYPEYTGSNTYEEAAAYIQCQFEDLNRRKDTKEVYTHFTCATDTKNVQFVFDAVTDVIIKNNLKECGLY
# HCMV UL50-53 inh = cytomegalovirus nuclear egress complex inhibition; HTRF UL50-UL53 interaction, normalized percent inhibition; inhibition, % (no concentration beside the values); 190,000 tested, 0.15% active; AID 1918969;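 active = both replicates at 50% or more, plus weaker picks with an unusually low signal ratio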;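 also: stock transfer was 100 nL into about 20 µL; 0% = negative control wells and 100% = wells with untagged competitor protein; inactives centre near -12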
# Sa growth inh = S. aureus growth inhibition; S. aureus RN4220 growth, OD600, 20 h, 42 °C; hits give low values; relative growth, % (no concentration beside the values); 170,000 tested, 0.53% active; AID 720641;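 active = growth at 42 °C up to 50% and 20 or more points under that at 30 °C, or under 10% at both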;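 also: 300 nL library stock went into each well; scaled to the means of positive and negative controls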
# Sa growth inh second temp = further read-out of Sa growth inh, marked with its call; relative growth, %; measured here: growth at 30 °C;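 optical density after 20 h as mean of two plates; 100% = untreated growth and lower means inhibition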
# Active calls of the source: *; . = no result given; & = joins results of further samples. The order is random, and some 0.83% of all compounds hit somewhere here.
SMILES,GIV-Gai inh,HCMV UL50-53 inh,Sa growth inh,Sa growth inh second temp
CCOC(=O)c1nc(Nc2cc(C)cc(C)c2)c2c(CC)noc2n1,111,-11,.,.
CCOC(=O)c1cc(-c2ccc(C)cc2)n(CC(=O)NCC2CCCO2)c1C (stereo unspecified),104,.,108,90
CCOC(=O)c1sc2nc(SCC(=O)C(C)(C)C)n(Cc3ccccc3Cl)c(=O)c2c1C,104,.,115,89
CCOc1ccc(/C=C/c2nc(C#N)c(NC(C)CC)o2)cc1 (stereo unspecified),100,-32,100,90
CCOc1ccc(NC(=O)CCc2c(C)nn(-c3ccc(N4CCCC4)nn3)c2C)cc1,101,.,98,89
CCN(CC)c1ccc(/C=N/N2CCN(Cc3ccc(Cl)cc3)CC2)c(O)c1,99,-7,103,89
Cc1nc(-c2nnc(SCC(=O)Nc3ccc(Cl)cc3)n2C)cs1,103,4,108,82
c1ccn(-c2nonc2-c2nnc(-c3nonc3-n3cccc3)o2)c1,113,-5,80,92
O=C(/C=C/c1ccco1)Nc1cccc(NC(=O)/C=C/c2ccco2)n1,.,-7,87,83
CC(C)C(C)(C#N)NC(=O)CSc1nnc2ccccn12 (stereo unspecified),.,1,88,93
CC(NC(=O)Cn1c(=O)oc2cc(S(=O)(=O)N3CCCCCC3)ccc21)c1ccccc1 (stereo unspecified),97,-5,109,96
O=C(OCc1cccc(C(F)(F)F)c1)c1ccc(-c2nnn(Cc3ccc(F)cc3)n2)cc1,98,-12,98,91
Cc1nc(-c2ccc(C)c(S(=O)(=O)N3CCC(C(=O)Nc4ccc(Br)c(C)c4)CC3)c2)no1,104,2,.,.
Cc1nn(CC(=O)N2CCCCC2)c2ccccc12,110,0,.,.
N#CC1=C(Nc2ccccc2Cl)SC(c2ccncc2)NC1=O (stereo unspecified),95,-18,97,78
CCc1noc(C)c1C(=O)N1CCN(S(=O)(=O)c2ccccc2)CC1,.,-22,91,91
CCOc1ccc(CNC(=O)c2cnc3sc(N4CCOCC4)nn3c2=O)cc1OC,110,.,86,97
CN(CCO)c1ccc(C(F)(F)F)cn1,109,-6,106,102
Cc1cc(Br)ccc1-c1ccc(CNCCO)o1,103,-19,.,.
CCC(C)c1ccc(C2=Nn3c(nnc3C(C)C)SC2)cc1 (stereo unspecified),.,-21,62,74
O=C(CC1NCCNC1=O)Nc1ccc(F)c(Cl)c1 (stereo unspecified),101,-5,81,88
Cn1c(=O)c2[nH]c(SCc3ccc(Cl)c(Cl)c3)nc2n(C)c1=O,100,-28,89,82
CCOC(=O)CSCCOc1ccc(C=C2C(=O)NC(=S)NC2=O)cc1OC,93,-26,.,.
CCOc1ccc(C2c3c(-c4cc(C)ccc4O)n[nH]c3C(=O)N2Cc2cccnc2)cc1OCC (stereo unspecified),103,-9,99,89
NC(C(=O)O)C1CCCCC1 (stereo unspecified),99,24,73,86
Cc1ccc(-n2ncc3c(N4CCCCCC4)ncnc32)cc1,99,.,116,89
CC(C)c1cc(Nc2cc(F)cc(F)c2)n2nc(-c3cccnc3)nc2n1,105,-7,.,.
CCOc1ccc2nc(SCC(=O)NCc3ccccc3)[nH]c2c1,107,4,88,92
CN(C)c1ccc(/C=C/C=C2/SC(=O)N(CC(=O)N3CCCC3)C2=O)cc1,128,-38,90,85
CCCN1CCN(c2cc(C(=O)O)c3cc(NC(=O)c4ccc(C)cc4)ccc3n2)CC1,106,-32,.,.
Cc1ccc(S(=O)(=O)N(C)c2nc3ccccc3nc2N2CCN(Cc3ccccc3)CC2)cc1,.,-13,106,99
O=C1CSc2ccc(S(=O)(=O)N3CCC(N4CCCCC4)CC3)cc2N1,106,2,.,.
CN(C)CC(O)COc1ccc(C(C)(C)C)cc1 (stereo unspecified),98,-8,73,67
COc1ccc(C(CNC(=O)c2oc3cc(Br)ccc3c2C)N2CCCCC2)cc1 (stereo unspecified),102,-36,100,85
COc1ccccc1N1CCN(Cc2cn[nH]c2-c2ccccc2)CC1,102,15,85,83
CCN1CCC(N)CC1,.,-14,116,95
COC(=O)c1sccc1S(=O)(=O)N1CCN(c2cccc(C)c2C)CC1,106,.,80,80
CN1CCN(c2ccc(NS(C)(=O)=O)cc2C(=O)O)CC1,103,-26,.,.
COc1ccccc1CNC(=O)CSc1ncc2c(n1)-c1cc(Cl)ccc1N(Cc1ccccc1)S2(=O)=O,115,.,99,82
C=CCNc1oc(-c2ccccc2C)nc1C#N,105,-12,113,98
Nn1c(COc2ccccc2)nnc1SCc1cc(=O)[nH]c2ccccc12,108,-2,109,99
O=C(c1ccccc1)N1CCc2ccccc21,102,-5,114,87
COc1cccc(/C=C(/C(=O)OCC(N)=O)c2ccccc2)c1,.,-60,88,87
CC1(C)C2CC[C@]3(C)C(C(=O)C=C4[C@@H]5C[C@@](C)(C(=O)O)CC[C@]5(C)CC[C@]43C)[C@@]2(C)CC[C@@H]1OC(=O)CCC(=O)O (stereo partly specified),.,-15,97,93
CSc1ccccc1N1C(=O)CC(Sc2ccccc2C(=O)O)C1=O (stereo unspecified),100,.,38,35

# Structural class: those above containing a Cl atom.
SMILES,GIV-Gai inh,HCMV UL50-53 inh,Sa growth inh,Sa growth inh second temp
CCOC(=O)c1sc2nc(SCC(=O)C(C)(C)C)n(Cc3ccccc3Cl)c(=O)c2c1C,104,.,115,89
CCN(CC)c1ccc(/C=N/N2CCN(Cc3ccc(Cl)cc3)CC2)c(O)c1,99,-7,103,89
Cc1nc(-c2nnc(SCC(=O)Nc3ccc(Cl)cc3)n2C)cs1,103,4,108,82
N#CC1=C(Nc2ccccc2Cl)SC(c2ccncc2)NC1=O (stereo unspecified),95,-18,97,78
O=C(CC1NCCNC1=O)Nc1ccc(F)c(Cl)c1 (stereo unspecified),101,-5,81,88
Cn1c(=O)c2[nH]c(SCc3ccc(Cl)c(Cl)c3)nc2n(C)c1=O,100,-28,89,82
COc1ccccc1CNC(=O)CSc1ncc2c(n1)-c1cc(Cl)ccc1N(Cc1ccccc1)S2(=O)=O,115,.,99,82

# Going on with the list:
SMILES,GIV-Gai inh,HCMV UL50-53 inh,Sa growth inh,Sa growth inh second temp
CCC1(CO)COC(c2ccco2)OC1 (stereo unspecified),102,-7,69,93
O=C(Nc1ccccc1)N(Cc1ccco1)Cc1cccs1,104,-23,120,88
Cc1ccc(CNC(=O)c2ccc(N3CCCS3(=O)=O)cc2)cc1,104&105,22,109,93
Cc1ccc(OCCc2csc(N)n2)cc1,99,-28,95,90
COc1ccc(CN2COc3ccc(OC)cc3C2)cc1,99,.,102,83
COc1ccc(/C=C(\C#N)C(=O)OC(C)(C)C)cc1,110,-22,107,97
CC1CCCN(C(=O)COC(=O)COc2ccc(Cl)cc2)C1 (stereo unspecified),.,8,84,91
O=C1CCN(C(=O)Cc2ccc(NS(=O)(=O)c3ccc(F)cc3)cc2)CC1,.,-22,92,90
Cc1cc(OCC(=O)NCc2ccco2)cc(C)c1Cl,95,9,117,96
C=CCn1c(C2CCS(=O)(=O)C2)n[nH]c1=S (stereo unspecified),.,-15,97,99
CCN1CCN(c2ccc(NS(=O)(=O)c3ccc(Br)cc3)c(C(=O)O)c2)CC1,110,-15,.,.
COc1ccc(CCNS(=O)(=O)c2cc(-c3onc(C)c3C)ccc2OC)cc1OC,100,.,83,84
CCc1cccc(N2Cc3cc(Cl)ccc3OCC2=O)c1,103,25,.,.
c1cncc(-c2nc(NCCSCc3ccco3)c3ccccc3n2)c1,.,5,5.9*,-0.3*
O=C(CSc1nc2sc3c(c2c(=O)[nH]1)CCCC3)NCCCn1ccnc1,105,-16,.,.
CNC(=O)NCc1ccc(-c2csnn2)cc1,105,-25,98,83
COC(=O)CNc1cc[nH]c(=O)c1C#N,100,-2,104,111
Cc1cc(C)c(C(N)=O)c(SCC(=O)Nc2c(C)n(C)n(-c3ccccc3)c2=O)n1,.,-31,100,96
CCCNC(=O)C1CN(C(=O)c2cnc(C)cn2)c2ccccc2O1 (stereo unspecified),.,-41,96,82
CC(=O)Nc1ccc(S(=O)(=O)N2CCC(NC(C)=O)(c3cccc(F)c3)CC2)cc1,99,0,106,77
NC(=O)C1(N2CCCCC2)CCN(S(=O)(=O)c2ccc(Cl)s2)CC1,105,-16,98,92
Cc1nc2ccccc2n1Cc1nnc2sc(-c3cccnc3)nn12,110,-15,.,.
CCOC(=O)C1=C(C)NC2=C(C(=O)CC(c3ccco3)C2)C1c1ccc(C(F)(F)F)cc1 (stereo unspecified),97,-12,119,86
Cc1cc(-c2ccc(S(=O)(=O)Nc3cccc(Cl)c3C)cc2)on1,104,.,116,84
Cn1c(=O)[nH]c(=O)c2c1nc1n2CC(c2ccccc2)=N1,.,-11,92,82
CCc1ccc(-n2nc3cc(C)c(NC(C)=O)cc3n2)cc1,102,-14,92,101
O=c1cc(NCCC2=CCCCC2)c2ccccc2o1,104,-2,102,78
CN(C(=O)COc1ncnc2sccc12)c1ccccc1,.,-8,111,83
COCc1c(C(=O)OC2CCOC2=O)oc2ccccc12 (stereo unspecified),.,-13,102,96
CC1CCC2(CC1)C(=O)NC(=O)N2C (stereo unspecified),.,-8,102,95
Cc1ccc(-c2c(C(F)(F)F)nn3c(NCCC(C)C)cc(C)nc23)cc1,97,-2,.,.
CCN=C1S/C(=C\c2ccc(OC)c(OC)c2)C(=O)N1CC,105,-55,85,85
CC(=O)c1cccc(NC(=O)CCn2nc(C)c(S(=O)(=O)N(C)C)c2C)c1,105,.,89,86
CCN(CC)C(=O)c1ccccc1C,100,-8,95,100
CCOC(=O)C1=C(C)N=c2s/c(=C\c3cccc(OC)c3)c(=O)n2C1c1ccc(OC)c(OC)c1 (stereo unspecified),102,-12,.,.
COCCN(C(=O)Nc1ccccc1OC)c1nc2ccccc2s1,98,-5,81,94
COc1ccc(NC(=O)c2cccnc2)cc1NC(=O)c1ccccc1,97,-21,.,.
O=C(Nc1ccc2c(c1)OCO2)c1c(Cl)nc2ccccn12,.,-30,108,90
O=C1S/C(=C/c2ccc3c(c2)OCO3)C(=O)N1CN1CCCCC1,96,-55,80,103
O=C(c1cc(-c2ccc(F)cc2)no1)N1CCN(c2cccc(Cl)c2)CC1,104,.,117,97
CCc1cccc(C)c1NC(=O)c1ccco1,100,1,108,89
Cc1cccc(OCC(=O)Nc2ccc(S(=O)(=O)Nc3onc(C)c3C)cc2)c1C,102,-54,64,76
COc1cccc(N2CCN(C(=O)CCC3=NS(=O)(=O)c4ccc(C)cc4N3)CC2)c1,104,-8,.,.
CCOc1ccc(CCNC(=O)c2ccc3nc(CC)c(CC)nc3c2)cc1,100,.,94,93
CSc1ccc(-c2noc(CSc3ccc(-c4ccc(F)cc4)nn3)n2)cc1,104,-6,.,.

# Complete entries from above. Values in the order: GIV-Gai inh | HCMV UL50-53 inh | Sa growth inh | Sa growth inh second temp
# Profile of CCOc1ccc(CCNC(=O)c2ccc3nc(CC)c(CC)nc3c2)cc1 : 100 | . | 94 | 93
# Profile of Cc1ccc(-c2c(C(F)(F)F)nn3c(NCCC(C)C)cc(C)nc23)cc1 : 97 | -2 | . | .

# Next results
SMILES,GIV-Gai inh,HCMV UL50-53 inh,Sa growth inh,Sa growth inh second temp
CCCCNC(=O)Nc1ccc(C2SCCS2)cc1,104,-28,100,85
CCc1nnc(NC(=O)CSC2=NC(=O)C(NC(C)=O)C(=O)N2)s1 (stereo unspecified),95,-25,85,81
O=C1c2cccc3c(N4CCOCC4)ccc(c23)C(=O)N1CCOC(=O)C12CC3CC(CC(C3)C1)C2,99,-7,.,.
O=C(Nc1ccc(F)cc1F)c1cc2ccc3cccnc3c2[nH]1,102,.,80,94
CCOC(=O)c1cncc(C#CCOC(=O)Nc2ccc(OC(F)(F)F)cc2)c1,105,4,96,87
CC(C)OC(=O)/C(C#N)=C/c1c[nH]c2ccccc12,101,-50,83,72
Cc1ccc(C=Nc2c(F)cccc2F)o1,.,-2,102,94
Cc1noc(Cn2c(=O)c3cc4c(cc3n(CC(=O)Nc3ccccc3F)c2=O)OCO4)n1,108&105,-12,86,93
COC(=O)c1cc2oc3ccccc3c2n1CC(=O)Nc1ccc(C)cc1C,99,5,92,93
O=S1(=O)C[C@H](N2CCC3(CC2)OCCO3)[C@@H](S(=O)(=O)c2ccc(F)cc2)C1,104,-24,.,.
Cc1ccc(C)c(NC(CC(=O)c2ccccc2)C(=O)O)c1 (stereo unspecified),102,.,97,71
Cc1cc(C)c(C#N)c(=S)[nH]1,.,11,100,104
COC(=O)CSc1nc2c(-c3ccccc3)c[nH]c2c(=O)[nH]1,106,-9,.,.
Nc1cccc2c(S(=O)(=O)NC3CCCCC3)cccc12,105,-66,87,71
CC1CCCCN1c1nc(-c2ccc(C(C)(C)C)cc2)nc2ccccc12 (stereo unspecified),105,-38,68,70
Cc1ccc2c(c1)cc1c(=O)n(CC(=O)N3CCCCC3)nc(C)n12,97,-60,116,84
CC1=CCC(COC(=O)Nc2ccccc2)CC1 (stereo unspecified),102,.,89,75
COc1ccc(C2c3c(oc4cc(C)cc(C)c4c3=O)C(=O)N2Cc2ccco2)cc1OC (stereo unspecified),97,-19,97,89
